Bioassay records deposited in PubChem BioAssay by several laboratories.
RanGTP-Impb inh = inhibitors of RanGTP-importin-beta interaction, primary screen, biochemical, FRET, CFP-Ran, YFP-importin-beta, homogeneous; cell-free CFP-Ran/YFP-importin-beta FRET ratio; inhibition, % (concentration not given with the values); 1.1% of 300,000 active; AID 2216;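 active = most replicates above 15%; inconclusive = exactly half above 15%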;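 also: 0% = DMSO wells and 100% = Ran loaded with GDP instead of GTP; wells of about 40 µL received 100 nL stock; the first replicate is given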
T cruzi repl = T. cruzi replication inhibition. 1.4% of 300,000 active. T. cruzi beta-gal in NIH3T3, luminescence, 90 h. inhibition, % (test concentration not listed). AID 1885;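 active = mean inhibition across valid replicates above about 55%, limit read from the data; inconclusive = mean below that limit but half or more replicates reach it; inactive = mean below it, under half of replicates reach it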;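 also: signal also drops with host cell toxicity which is not excluded here; 0% = plate median of DMSO wells and 100% = zero luminescence signal; higher percent means less beta-gal luminescence so fewer parasites; stock transfer was 50 nL into about 50 µL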
AF4-AF9 inh = blocks AF4 peptide binding to human AF9; AlphaScreen, biotin-AF4 peptide binding to FLAG-AF9; inhibition, % at 10 µM; 0.47% of 350,000 active; P42568;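 active = every replicate reaching a set inhibition limit, whatever the replicate mean, cut at about 25% in these data; inconclusive = mean inhibition reaches that limit but some replicates miss it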;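 also: 0% = plate neutral control median and 100% = total signal loss; the record names both 10 and 1 µM as test concentration; the first replicate is given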
Target sequence (P42568 whole entry, looked up): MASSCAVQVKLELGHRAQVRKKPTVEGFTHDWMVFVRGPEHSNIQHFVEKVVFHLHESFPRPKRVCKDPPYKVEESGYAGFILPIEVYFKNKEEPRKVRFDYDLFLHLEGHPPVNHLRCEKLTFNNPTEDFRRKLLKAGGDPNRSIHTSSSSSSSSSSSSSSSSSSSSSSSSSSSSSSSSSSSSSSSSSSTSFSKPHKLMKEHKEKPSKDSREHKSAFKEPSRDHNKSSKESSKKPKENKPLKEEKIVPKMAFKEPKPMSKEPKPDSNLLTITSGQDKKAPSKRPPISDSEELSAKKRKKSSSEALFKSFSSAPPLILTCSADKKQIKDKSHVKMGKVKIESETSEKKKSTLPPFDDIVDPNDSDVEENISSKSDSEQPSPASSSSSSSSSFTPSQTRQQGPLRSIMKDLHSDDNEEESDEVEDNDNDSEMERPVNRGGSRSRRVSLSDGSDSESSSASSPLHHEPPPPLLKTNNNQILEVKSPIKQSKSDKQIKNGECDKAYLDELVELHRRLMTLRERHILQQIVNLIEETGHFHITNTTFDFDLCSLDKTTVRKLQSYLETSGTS
Ecoli rRNA inh = selective bacterial rRNA inhibition in E. coli | GFP signal change (wild-type ribosome), % (no concentration beside the values) | 1.6% of 350,000 active | E. coli WT GFP vs humanized-ribosome RFP mutants, fluorescence, 24 h; active compounds read low; DMSO median 0, no signal -100;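 active = significant combined selectivity score with lowered wild-type GFP, culture density cut under 30%, mutant RFP and density less affected; inactive = any of these conditions unmet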; also: one replicate is shown; some compounds called inactive have numbers as strong as hits
Vif TR-FRET = HIV-1 Vif–A3G interaction blockers – biochemical, TR-FRET, GST-Vif 1-94, biotin-A3G peptide, dose response retest, primary screen (AID 1117319) | TR-FRET GST-Vif / biotin-A3G peptide binding; higher % means a stronger effect; test concentration not given here; strong numbers were not always called active | inhibition, %, or IC50 in µM where a hit was titrated | 0.57% of 260,000 active;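 active = above the screen mean plus three standard deviations and confirmed in dose response; inconclusive = results disagree or hit not tested in dose response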;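 also: Vif residues 1-94 fused to GST binding biotinylated APOBEC3G peptide 110-148; 0% = full assay without inhibitor and 100% = GST in place of GST-Vif; retest series ran down from 100 µM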
Beta cell apopt = blocks beta cell apoptosis; INS-1E cytokine-induced death, ATP luminescence, 48 h; percent of positive-control rescue, neutral wells zero; protection from apoptosis, % (no concentration beside the values); AID 435005; 0.8% of 300,000 active;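 active = all replicates at 75% or more, or half of them and the mean; inconclusive = half reach 75% but not the mean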;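 also: 0% = cytokine-treated negative control wells and 100% = positive control rescue; higher means more ATP so stronger rescue from cytokine killing; wells of about 40 µL received 100 nL stock; the first replicate is given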
Bfl-1 A1 inh = inhibitors of the anti-apoptotic protein A1, read as caspase activation; 0.066% of 330,000 active; caspase activation, % (test concentration not listed); MEF A1-2A-BIM cells, Caspase-Glo 3/7 luminescence, 3 h; percent of clofoctol response, vehicle zero;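 active = over half of replicate activation scores above 10%, or exactly half above 10 with the replicate mean above 10; inconclusive = replicate mean below 10 yet half the replicates above 10; inactive = over half of replicates below 10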;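 also: wells of about 30 µL received 50 nL stock; many hits fall short of the cut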
Calb FLC = C. albicans growth modulation with fluconazole. C. albicans CaCi-2 (fluconazole-resistant clinical isolate) + fluconazole, Alamar Blue growth, 48 h. growth inhibition, % (test concentration not listed). 0.57% of 300,000 active. AID 1979;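 active = most replicates above 75%; inconclusive = exactly half above 75%; inactive = most below 75%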;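 also: all wells also contain fluconazole at 8 µg/ml as a sub-toxic cotreatment; 0% = median of DMSO wells and 100% = median of geldanamycin control wells; wells of about 8 µL received 7.5 nL stock; the first replicate is given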
Ecoli rRNA inh OD600 = second read-out of Ecoli rRNA inh, no call of its own (marks repeat the call); OD600 change, %; measured here: OD600 growth;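 optical density of the mix in the first replicate; 0 = DMSO median and -100 = no signal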
Ecoli rRNA inh RFP = recorded beside Ecoli rRNA inh, whose call it bears; RFP signal change, %; measured here: RFP humanized mutant strains;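 first replicate; 0 = DMSO median and -100 = no signal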
Numbers without * were called inactive; u = inconclusive; x = no result given; & = joins results of further samples. These rows are one share of the data (hit frequency here may not be typical).

Compound | Ecoli rRNA inh OD600 | Bfl-1 A1 inh | Calb FLC | RanGTP-Impb inh | Ecoli rRNA inh RFP | Ecoli rRNA inh | AF4-AF9 inh | T cruzi repl | Vif TR-FRET | Beta cell apopt
Cc1ccc(O)c(C(=O)CC(=O)c2ccc(C(C)(C)C)cc2)c1 | -16.4 | 0.5 | -2.2 | 1.2 | -0.5 | -17.8 | 3.1 | -5.6 | x | 3.4
O=C(C1=C[C@H](c2csc3ccccc23)C[C@H](OCCCCO)O1)N1CCN(Cc2ccccc2)CC1 | -71.7 | 1.0 | 9.1 | u | -7.6 | -42.3 | 3.2 | 28.8 | x | 3.3
c1ccc(CSc2nc3ncncc3[nH]2)cc1 | 6.7 | -1.0 | 7.7 | 1.6 | 0.0 | 7.3 | -6.5 | -4.3 | -3.3% | -1.7
O=C(N[C@@H](Cc1ccccc1)C(=O)O)c1ccncc1 | 15.0 | -0.1 | -7.1 | -2.3 | 13.5 | 5.6 | -11.6 | -32.7 | -3.2% | -8.1
CCCN(CCC)CCCNC(=O)C1c2cc(OC)c(OC)cc2C(=O)N(C)C1c1cccs1 (stereo unspecified) | x | -0.3 | 24.3 | -0.7 | x | x | x | -8.1 | 26.4% | -11.7
COc1cc(NC(=O)c2ccc(Cl)cc2)c2ncccc2c1 | 22.6 | 1.7 | 20.8 | -7.5 | 1.3 | 15.7 | -2.2 | -4.9 | -7.4% | 6.3
O=Cc1ccc(OCc2nnc(-c3ccccc3Br)o2)cc1 | -10.2 | 0.0 | 5.8 | -0.1 | -0.3 | -2.3 | -1.9 | -3.0 | x | -0.4
CC1CN(S(=O)(=O)c2ccc(F)cc2)CN1C(=O)N1CCOCC1 (stereo unspecified) | 4.0 | 0.3 | 3.8 | -1.3 | -0.7 | -1.8 | -4.6 | -3.2 | x | x
O=C(Nc1ccc(Cl)cc1)c1cccc(N2C(=O)C3C4CCC(C4)C3C2=O)c1 (stereo unspecified) | x | -0.4 | 4.8 | -0.7 | x | x | x | 0.7 | 12.8% | -3.9
COc1cc(C(=O)Nc2cc(Cl)ccc2C)c(-n2cnnn2)cc1OC | x | 1.7 | 23.5 | 2.8 | x | x | x | -12.5 | 2.2% | 1.8
COc1ccc(S(=O)(=O)N(CC(=O)N2CCN(c3ccccc3)CC2)c2ccccc2)cc1 | x | 0.1 | 1.7 | 4.6 | x | x | x | 23.0 | 10.2% | -5.0
COc1ccc(/C=C/CN2CCN(Cc3ccc(F)cc3)C(CCO)C2)cc1 (stereo unspecified) | -1.0 | 0.1 | -0.5 | 5.4 | 2.6 | -1.0 | -1.1 | 8.3 | x | -2.8
COc1ccc(C2C=C(c3ccc(C)c(C)c3)Nc3ncnn32)c(OC)c1OC (stereo unspecified) | -4.8 | -1.1 | 3.9 | 8.0 | 0.1 | -3.2 | 2.9 | -18.9 | 3.1%&5.5% | -2.7
Cc1cnc(C(=O)N2CCN(S(=O)(=O)c3ccc(F)c(F)c3F)CC2)cn1 | 8.6 | -1.4 | x | x | -2.5 | 1.5 | -1.4 | x | x | 1.7
O=C1CC(N2CCc3ccccc32)C(=O)N1c1ccc(F)cc1 (stereo unspecified) | 5.7 | 0.2 | -1.1 | -2.1 | -0.9 | -2.9 | -1.7 | -3.9 | -1.6% | -2.9
Cc1c(C(=O)NCc2ccc3c(c2)OCO3)oc2ccccc12 | x | -0.1 | -39.2 | -2.7 | x | x | x | 17.9 | 8.5% | -4.4
CC(C)(C)c1ccc2c(c1)OC(C(=O)N/N=C\c1ccc(-c3cccc(C(=O)O)c3)o1)CO2 (stereo unspecified) | -5.1 | 1.1 | 2.5 | u | -1.4 | 1.1 | 14.8 | -9.2 | 23.0% | -5.5
CCCCNC(=O)c1onc(CSc2ccc(C)c(C)c2)c1C(=O)O | -44.3 | -2.3 | 0.9 | -1.4 | 0.2 | -32.6 | 1.1 | -12.2 | -0.6% | -8.1
O=C(NCCc1ccccc1)c1ccc2c(c1)OCCCO2 | 10.0 | -8.4 | -19.5 | 2.0 | -2.1 | 1.7 | -0.3 | -4.0 | x | 3.5
CCOC(=O)CC(NC(=O)c1cccc2c1C(=O)N(Cc1cccnc1)C2)c1ccc(OCC)c(OC)c1 (stereo unspecified) | x | -0.3 | -1.9 | 2.4 | x | x | 0.7 | 3.9 | x | -1.4
Cc1ccc(-c2nc(CS(=O)(=O)CC(=O)N3CCOCC3)c(C)o2)cc1 | 8.4 | 0.6 | 2.8 | 3.9 | -1.9 | 0.0 | -4.8 | -1.9 | x | -8.1
C=CCn1c(-c2sc(-c3ccccc3)nc2C)n[nH]c1=S | -5.3* | -0.9 | 34.9 | 0.0 | 7.6* | -24.3* | -6.4 | -8.3 | -1.4% | 1.0
CCCN(CCC)C(=O)Cn1ccc(=N)c2ccccc21 | x | 0.2 | 19.6 | 5.4 | x | x | x | -2.9 | 1.7% | -7.3
CCc1ccc(-c2c(C)sc(NC(C)=O)c2C(N)=O)cc1 | x | -0.4 | -3.1 | 2.1 | x | x | x | 7.0 | -2.9% | -7.5
Cc1n[nH]c(C)c1CCNC(=O)C1CCC(=O)N(Cc2ccccc2F)C1 (stereo unspecified) | 8.5 | -0.3 | 3.6 | 0.3 | 1.8 | 6.6 | 0.8 | -2.2 | x | -0.9
Cc1cc(C)c(N(C(=O)CN2C(=O)c3ccccc3S2(=O)=O)C(C(=O)NCC2CCCO2)c2ccc(F)cc2)c(C)c1 (stereo unspecified) | x | -0.4 | 6.3 | -2.5 | x | x | x | 6.7 | -5.2% | -4.6
COc1ccc(Nc2cc(C(=O)NCc3ccccn3)c3ccccc3n2)c(OC)c1 | x | 0.4 | 17.4 | 8.9 | x | x | x | 23.3 | 7.8% | 4.2
COc1ccc(C2C(C(=O)c3cccs3)=C(O)C(=O)N2c2cccc(C)n2)cc1 (stereo unspecified) | 3.6* | 0.2 | -1.3 | -0.6 | 4.3* | -18.1* | -5.7 | -9.9 | -8.9% | -6.5
Cc1cc(OCCN2CCCC2)cc(C(C)C)c1 | x | 0.1 | -37.4 | -2.6 | x | x | x | 38.7 | 4.6% | 1.4
Cc1ccc(C2CC(=O)C=C(NCc3ccccc3)C2)cc1 (stereo unspecified) | -23.5* | 0.9 | -4.3 | 3.5 | -4.8* | -31.7* | -1.3 | 12.9 | 3.7% | 19.2
O=C(Cn1cnc([N+](=O)[O-])n1)c1ccccc1 | 8.9 | 1.8 | -3.1 | u | 1.9 | 2.7 | 0.1 | 38.3 | x | -3.3
Cc1ccc(C(=O)NC(=S)NCc2ccco2)cc1 | -9.3 | -0.5 | -16.0 | 1.8 | 4.9 | -11.5 | 0.4 | 7.8 | 15.1% | -0.7
Cc1cccc(N2CCN(C(=O)c3ccccc3OCc3c(C)noc3C)CC2)c1C | -64.2 | -0.8 | -4.4 | 5.0 | 17.6 | -15.2 | 3.8 | 7.7 | -1.4% | -19.7
CN(C(=O)c1ccc(Cl)cc1)C1CCS(=O)(=O)C1 (stereo unspecified) | 9.5 | 1.0 | x | x | -1.9 | 10.1 | 0.3 | x | x | -4.8
CC(=O)c1cccc(OCc2cc(C(=O)N3CC4C[C@@H]5CC3C[C@H](C4)C5)no2)c1 | -65.1 | -0.4 | -21.6 | u | -5.6 | -31.0 | -0.9 | 34.5 | x | 26.4
COc1ccc(-c2cc(-c3ccco3)[nH]c(=O)c2C#N)cc1 | -1.7 | 0.6 | 3.7 | 6.6 | 25.4 | 12.4 | 0.9 | 4.0 | 25.3µM* | 3.7
O=C(NCc1ccccn1)c1ccc(NS(=O)(=O)c2cccc([N+](=O)[O-])c2)cc1 | -16.0 | 0.2 | x | x | -5.5 | -7.8 | 1.2 | x | -5.6% | -2.0
Cc1ccn2cc(-c3ccc4c(c3)NC(=O)CO4)nc2c1 | 6.5 | -4.7 | 1.3 | -141.8 | -7.3 | 10.9 | 2.0 | 9.2 | x | 3.2
O=C(Nc1ccccc1)Nc1cc(S(=O)(=O)N2CCOCC2)ccc1N1CCCC1 | x | 0.2 | 8.8 | 5.5 | x | x | x | 8.2 | x | -4.8
CC(C)CNC(=S)Nc1ccc(F)cc1 | 18.5 | -0.2 | -4.1 | -3.3 | 1.4 | 13.1 | 1.7 | -3.0 | -1.4% | x
Cc1sc(NC(=O)c2ccco2)c(CN2CCN(c3ccccn3)CC2)c1C | x | -0.2 | 62.0 | 4.5 | x | x | x | 33.4 | 17.2% | -6.6
COc1ccc(-c2nc(NC(=O)c3[nH]c(C)c(C(C)=O)c3C)sc2C)cc1 | -30.3 | 0.5 | 16.4 | 0.3 | 1.8 | -27.6 | 5.4 | 39.5 | 4.9% | -5.5
Cc1onc(-c2ccccc2)c1C(=O)N/N=C/C(Br)=C/c1ccccc1 | x | 0.4 | 3.9 | 8.1 | x | x | x | -0.3 | x | -0.8
OC(COc1cccc2ccccc12)CN1CCN(c2ccc(Cl)cc2)CC1 (stereo unspecified) | 21.1 | -0.1 | 9.2 | -4.5 | 1.0 | 13.0 | 0.9 | -1.0 | u | -2.1
CCOC(=O)C/C(C)=N/NC(=O)COc1ccccc1C | 0.1 | 0.2 | -7.3 | -1.7 | -10.8 | 1.7 | 0.3 | -12.4 | 15.1% | -0.2
Cc1c[nH]c(=O)c([N+](=O)[O-])c1 | 6.8 | 0.1 | 9.3 | 3.9 | -7.3 | 16.7 | 11.0 | -14.2 | 4.4% | -0.6
CCCCOC(=O)CSc1nc2ccccc2o1 | 5.3 | 0.7 | -6.4 | 3.5 | -3.1 | 3.5 | -0.2 | -18.5 | -12.7% | x
COc1cc(-c2nnn(CC(=O)N3CCOCC3)n2)cc(OC)c1OC | x | 0.2 | -2.7 | 1.4 | x | x | x | -6.7 | 2.2% | -4.6
O=C(CN(Cc1ccccc1Cl)C(=O)c1ccc(CN2CCOCC2)o1)NCC1CCCO1 (stereo unspecified) | x | 0.3 | -0.1 | -2.2 | x | x | x | -0.6 | 16.3% | -1.9
CC(Oc1cccc(Cl)c1)C(=O)Nc1ccccc1N1CCCCC1 (stereo unspecified) | 3.1 | 0.2 | 5.8 | 1.2 | -2.3 | 8.8 | -5.0 | 21.8 | -1.0% | 4.8
Cc1cc(C)cc(-n2ncc3c2CCCC3NC(=O)CCN2CCCC2=O)c1 (stereo unspecified) | 14.4 | -0.2 | 2.1 | 5.7 | -2.4 | 0.9 | -0.6 | -6.8 | -3.1% | 2.8
